Screening results deposited in PubChem BioAssay by National Center for Advancing Translational Sciences (NCATS).
Menin-MLL FL inh – menin-MLL binding inhibition, fluorescein peptide; Fluorescence polarization, fluorescein-MLL peptide displacement from menin; FP activity change, % at 61.4 µM; 290,000 tested, under 10 active; AID 1766; inconclusive = falling polarisation curve, or a change in total fluorescence; inactive = total fluorescence flat and polarisation flat or rising; no compound was filed as active; the % refers to the polarisation; negative = inhibition;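 also: % of control where 0% means no effect; inhibitors lower the polarisation; unlabelled MLL peptide was the positive control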
TRPML1 agonist – agonists of human TRPML1 channel. Q9GZU1. TRPML1-expressing cells, Ca2+ dye fluorescence, FDSS; host cell line not named in the record; reference of the full effect not given here. 410,000 compounds, 0.12% hits. activation, % (test concentration not listed); in the data active = activation above about 50%; inconclusive = about 30% to 50%; inactive = below about 30%; also: 0% is about no effect; the text of the record puts the active cut at 80%
Target sequence (Q9GZU1 whole entry, looked up): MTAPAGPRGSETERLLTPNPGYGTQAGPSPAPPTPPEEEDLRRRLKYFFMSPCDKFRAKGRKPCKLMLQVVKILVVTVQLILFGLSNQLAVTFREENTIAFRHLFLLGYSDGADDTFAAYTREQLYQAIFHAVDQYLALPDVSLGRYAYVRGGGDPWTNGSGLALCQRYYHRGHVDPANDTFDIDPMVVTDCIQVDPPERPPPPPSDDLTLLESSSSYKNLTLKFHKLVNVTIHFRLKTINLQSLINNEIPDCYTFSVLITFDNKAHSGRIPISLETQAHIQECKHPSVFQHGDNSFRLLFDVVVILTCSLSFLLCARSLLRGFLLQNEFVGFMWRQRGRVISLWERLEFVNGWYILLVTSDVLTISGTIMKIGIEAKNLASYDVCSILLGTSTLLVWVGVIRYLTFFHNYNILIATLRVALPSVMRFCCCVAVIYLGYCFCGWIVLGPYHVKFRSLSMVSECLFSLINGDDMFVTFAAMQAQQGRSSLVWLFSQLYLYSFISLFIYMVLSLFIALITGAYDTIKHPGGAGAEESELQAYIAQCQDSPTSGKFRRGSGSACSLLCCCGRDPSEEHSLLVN
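Tetracycline-induced TRPML1-DL cells are seeded and incubated overnight before loading with a no-wash Ca2+ dye and quencher. Agonist activity is taken from the 110 s fluorescence read following compound pin-transfer on an FDSS, before EC80 54-4 challenge.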
gsp agonist – activates gsp, the McCune-Albright syndrome mutation; gsp mutant cells, cAMP HTRF, 30 min; control for the full effect not named in the record; AID 624287; 340,000 compounds, 0.13% hits; Potency, µM (top dose mostly 76.9 µM), inactives show at the highest dose activation (cAMP increase), most hits filed as activators; active = well fitted activation curve with a large enough effect; inconclusive = small, poorly fitted or top-dose-only effect, or another doubt; inactive = no such curve, though single readings can be large or run the other way; cell line not stated here;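 also: phosphodiesterase inhibitor Ro 20-1724 added with compounds to block cAMP breakdown; potency is read from the fitted curve at half-maximal effect; nearly all actives have a fitted effect of over 60% in size; about a fifth of the inactives were tested at one dose only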
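Cells stably selected in G418 were plated at 2000/well, grown 16-24 hr, then given compounds in DMSO with the PDE inhibitor […] (300 uM solution added) for 30 min at 37C; cAMP was read by HTRF.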
ClpP mod – qHTS Assay for Activators of ClpP; ATP-dependent Clp protease proteolytic subunit (Bacillus subtilis (strain 168)), P80244; purified B. subtilis ClpP, FRET peptide cleavage, 20 min; Potency, µM (highest dose often 57.5 µM), for inactives: at the top dose activity change, negative = active; 340,000 compounds, 1.9% hits; AID 651965, 2013; active = well fitted falling curve with a large enough effect; inconclusive = small, poorly fitted or top-dose-only effect; inactive = no such curve, though single readings can be large or run the other way; also: potency is read from the fitted curve at half-maximal effect; the source files actives as falling curves though it sought activators and does not explain the sign; nearly all actives have a fitted effect of over 65% in size; many hits overshoot -100%
Target sequence (P80244 whole entry, looked up): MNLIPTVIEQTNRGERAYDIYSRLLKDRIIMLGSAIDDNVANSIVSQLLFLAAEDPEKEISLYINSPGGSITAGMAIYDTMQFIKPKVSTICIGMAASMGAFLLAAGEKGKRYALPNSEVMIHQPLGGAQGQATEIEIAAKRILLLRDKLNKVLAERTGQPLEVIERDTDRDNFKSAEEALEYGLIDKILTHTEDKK
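Purified B. subtilis ClpP, 10 microg/mL final in Tris/HCl pH8 with KCl, BSA, glycerol and Tween-20, cleaved an Abz/nitrotyrosine-quenched decapeptide. Fluorescence (ex 320, em 430) was read at 0 and 20 min at room temperature. Delta was normalized to 5.8 microM ADEP and DMSO/no-enzyme controls.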
gsp antag – gsp mutant antagonism; gsp-mutant cells, cAMP HTRF, 30 min; control for the full effect not named in the record; Potency, µM (doses to about 76.9 µM), for the others: at the top dose activity change, negative = inhibition, actives largely listed as inhibitors; 340,000 compounds, 0.4% hits; AID 624288; active = falling curve of any shape with a large fitted effect; inconclusive = falling curve, mostly with a smaller effect; inactive = flat or rising curve; cell line not stated here;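 also: intracellular cAMP measured with PDE inhibitor Ro 20-1724 present during compound exposure; potency is read from the fitted curve at half-maximal effect; % is scaled to controls: 0 for no effect and ±100 for the full control effect; nearly all actives have a fitted effect of over 65% in size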
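HTRF cAMP measurement after 30 min RT detection following 30 min, 37C compound treatment alongside […] (added as 300 uM solution) in G418-selected cells seeded at 2000/well and grown 16–24 h.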
TRPML1 inh – inhibitors of human TRPML1 channel. AID 624415. TRPML1-inducible cells, Ca2+ dye fluorescence, FDSS; active compounds read low; inhibition of EC80 agonist-evoked calcium signal. 390,000 compounds, 0.02% hits. activity change, negative = inhibition, % (no concentration beside the values). Q9GZU1; in the data active means activity change below about -50%; inconclusive means about -30% to -50%; inactive means above about -30%;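 also: stimulus is agonist 54-4 at its EC80 concentration; % is scaled to controls: 0 for no effect and ±100 for the full control effect; compound concentration not given in the record; the text of the record puts the active cut at -80%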
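TRPML1-DL cells, Tet-induced overnight (~16 h, 37 °C) at 1,500 cells/well, were loaded with Ca8 no-wash dye plus quencher for 45-90 min at room temperature. Compounds were pinned during FDSS kinetic reading; agonist 54-4 at EC80 (4 uM final) then added.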
Starred values were filed as active, the others as inactive; ? = inconclusive; nt = not tested or not shown; [ ] = another dose, or the depositor's remark.

SMILES	Menin-MLL FL inh	TRPML1 agonist	gsp agonist	ClpP mod	gsp antag	TRPML1 inh
O=C(COC(=O)C1CCN(S(=O)(=O)c2ccc3c(c2)OCCO3)CC1)NC1CCCCC1	nt	2.5	1%	0.7%	-1%	2
CSc1ccc(CCNC(=O)CN2C(=O)COc3ccc(S(=O)(=O)N4CCCCCC4)cc32)cc1	nt	1.5	nt	1.3%	nt	9
CCCOc1ccc(S(=O)(=O)NNC(=O)c2cc3ccccc3o2)cc1	1.6	0.9	-39%[inhibitor]	0.5%	-7%	3
COc1cc(C(=O)NC(C)Cc2ccccn2)ccc1OC1CCN(C(C)=O)CC1 (configuration not stated)	-5.1	-0.4	27%	-1.2%	0%	2
Cc1occc1C(=O)NCCc1cccc(Cl)c1	0.4	0.1	16%	-1.4%	3%	-6
Oc1ccc(Nc2ncnc3c2oc2ccccc23)cc1	nt	-0.3	-57%[inhibitor]	-0.9%	-4%	2
Cc1ccc(NC2CCCN(C(=O)CCCN3CCCCC3=O)C2)cc1C (configuration not stated)	-3.9	0.0	-2%	?	-5%	13
O=C(c1ccccc1)c1c(O)cc(-c2ccccc2)oc1=O	4.4	0.9	7%	-1.7%	-26%	-24
Cc1nn(C)c(C)c1CN(Cc1nc(CCC(C)C)no1)C(C)C	1.8	-0.7	-43%[inhibitor]	-1.6%	-10%	-11
O=C(c1cc(COc2ccc(F)cc2Cl)on1)N1CCSCC1	3.7	0.1	-30%	1.6%	5%	19
COc1ccc(C2(c3ccc(OC)cc3)NC(=O)N(CC(=O)NC3CCCC3)C2=O)cc1	nt	0.4	-37%[inhibitor]	0.3%	-15%	-11
c1ccc2[nH]c(CN3CCCCC3)nc2c1	3.4	2.0	-3%	5.4%	3%	9
C[C@@H]1CN([C@@H](C)CO)C(=O)c2cc(N(C)C)ccc2O[C@@H]1CN(C)S(C)(=O)=O	nt	-0.2	32%	-6.5%	0%	6
CC(C)CCNC(=O)c1onc(CSc2ccncc2)c1C(=O)NCCC(C)C	-0.9	0.5	-2%	-0.2%	-9%	2
CCc1ccc(S(=O)(=O)c2nnn3c2nc(Nc2cc(OC)cc(OC)c2)c2cc(Cl)ccc23)cc1	nt	-1.1	nt	-22%	nt	-5
CCOc1ccccc1NC(=O)CC1C(=O)NCCN1C(=O)c1ccc(F)cc1 (configuration not stated)	nt	-0.3	nt	-0.1%	nt	-15
Fc1cccc(Nc2ncnc3c2cnn3-c2ccccc2)c1	-0.9	1.5	-27%	?	-15%	22
Cc1ccc(CN2CCN(Cc3cnn(-c4ccc(F)cc4)c3)CC2CCO)o1 (configuration not stated)	-0.4	-1.0	-8%[15.4 µM]	nt	-6%	-5
O=C(O)c1cccc(OS(=O)(=O)c2cc(Br)ccc2Br)c1	nt	-0.9	-14%	-0.5%	-10%	-4
COc1cccc(C(=O)NCC(=O)N/N=C/c2cn[nH]c2-c2ccccc2)c1	0.5	0.4	-49%[inhibitor]	nt	5%	3
CCOc1ccc2nc(NCCNC(=O)Nc3ccccc3)c(C#N)cc2c1	-2.2	5.2	-11%	-4.7%	15%	16
COc1ccc(C(=O)c2ccc(Br)cc2)cc1	-0.3	-0.8	6%	1.1%	2%	9
O=C(c1cc(-c2ccc(O)cc2)on1)N1CCCCCC1	-15	2.9	8%	nt	1%	-52*
COc1ccc(OCc2cc(C(=O)N3CCN(C4CCCC4)CC3)no2)c(Cl)c1	nt	-0.6	5%	-1.8%	-9%	-9
Cc1ccc(SCC(=O)NCC2COc3ccccc3O2)cc1 (configuration not stated)	nt	-0.3	7%	1.1%	-2%	0
O=S(=O)(/N=C(/Nc1cccnc1Cl)c1ccccc1)c1ccccc1	nt	1.8	-34%[inhibitor]	-0.5%	2%	4
Cc1ccc(NC(=O)C2CCCN(S(=O)(=O)c3c(C)noc3C)C2)cc1F (configuration not stated)	1.1	0.0	-6%	0.5%	25%	-8
CN1C(=O)/C(=C/c2ccccc2OCc2ccc(F)cc2)N(C)C1=S	17	0.3	24%	0.4%	6%	28
O=C(/C=C/c1cccs1)Nc1sc2c(c1C(=O)O)CCCC2	-0.1	1.4	-2%	0.2%	-31%	15
O=C(CSc1nnc(CCc2nc3ccccc3[nH]2)n1-c1ccccc1)NCc1ccccc1	1.3	-1.1	11%	0.2%	2%	3
Cc1cc(C)n(-c2cc(-c3ccccc3)nc(C)n2)n1	5.1	0.1	-23%	0.3%	-3%	60
Cc1ccc(P(=O)(CSC(=N)N)c2ccc(C)cc2)cc1	1.2	-0.7	-21%	nt	4%	-8
CCCCn1c(N)c(N(CCOC)C(=O)CSCc2ccc(Cl)c(Cl)c2)c(=O)[nH]c1=O	nt	-0.2	3%	-5.1%	-1%	-13
COc1ccc(Cl)cc1NC(=O)CNc1ccccc1N1CCOCC1	0.5	-0.2	-5%	-0.1%	-1%	2
O=C(Cn1nc(C(F)(F)F)cc1C1CC1)Nc1ccccc1F	-0.8	0.0	-9%	1.0%	10%	3
S=C(NCCCc1ccccc1)NC1CCCCC1	2.9	0.5	1%	-1.4%	-1%	-23
O=C1c2ccccc2-c2c1cccc2C(=O)N1CCOCC1	5.9	1.1	13%	-2.2%	-1%	-1
O=C(O)c1cc(S(=O)(=O)N2CCN(C(c3ccccc3)c3ccccc3)CC2)ccc1Cl	-5.0	0.8	-1%	nt	-11%	3
O=C(CCN1C(=O)C2C3C=CC(C3)C2C1=O)Nc1ccccn1 (configuration not stated)	-0.1	-0.5	?	-3.6%	11%	4
CCC1CCc2sc(C(=O)NNC(=S)NCC3CCCO3)cc2C1 (configuration not stated)	nt	0.9	-2%	4.2%	1%	39
COc1ccccc1NC(=O)C1=C(C)Nc2nc(SCc3ccccc3Cl)nn2C1c1ccccn1 (configuration not stated)	nt	-0.2	nt	2.7%	nt	14
CCCCOc1ccc(C(=O)NCC(=O)NC(C)CCc2ccccc2)cc1 (configuration not stated)	nt	1.1	-1%	-24%	-1%	-3
Cc1ccc2nc(CN3CCN(C(=O)Nc4cccc(C)c4C)CC3)oc2c1	nt	-0.5	nt	0.6%	nt	24
O=C(c1ccc(S(=O)(=O)Nc2ccccc2F)cc1)N1CCC1	nt	0.1	57%[15.4 µM]	-6.6%	-4%	39
COc1cccc(NS(=O)(=O)c2cc3c4c(c2)CCC(=O)N4CCC3)c1	nt	-0.7	?	1.3%	6%	35
CSc1ccc(CN2CCCCCC2)cc1	-2.0	1.1	1%[15.4 µM]	-1.5%	7%	10
Nc1ccn(-c2ncc(C(F)(F)F)cc2Cl)c(=O)n1	11	0.9	-13%[15.4 µM]	nt	20%	-8
CCCS(=O)(=O)N1CCCC(C(=O)NCCN2CCOCC2)C1 (configuration not stated)	2.8	0.7	-31%[inhibitor]	1.1%	1%	3
CC1(OC(=O)CCc2ccccc2)C(=O)C=C2C=C(c3ccc(C#N)cc3)N(Cc3ccccc3)C=C2C1=O (configuration not stated)	?	-0.3	nt	-8.8%	-5%	0
COc1cc(C(=O)OCCc2cc3ccccc3c(=O)o2)cc(OC)c1OC	nt	2.0	nt	-4.3%	-4%	29
COc1ccc(S(=O)(=O)N2CCC(NC(=O)OCc3c(Cl)cccc3Cl)CC2)cc1	2.9	-0.3	1%	0.1%	5%	-1
O=C(CN1C(=O)c2cccnc2Oc2ccc(Cl)cc21)NC1CCCCC1	0.8	2.1	?	-2.5%	-10%	3
O=C(NCCc1ccc2c(c1)OCCO2)c1ccccn1	-3.7	-0.3	25%	nt	-5%	8
Cc1ccc(N(C(=O)Cn2nnc3ccccc32)C(C(=O)NCc2ccco2)c2cccnc2)cc1 (configuration not stated)	-0.2	-0.6	-27%	0.8%	-9%	9
COc1ccc(NCN2C(=O)C3C4C=CC(C4)C3C2=O)cc1 (configuration not stated)	-1.7	0.2	-19%	nt	6%	46
Cn1cccc1C(=O)Nc1ccc(N2CCOCC2)cc1	nt	1.7	-11%	-3.1%	-4%	-18
COc1ccc(-n2cnnc2SCC(=O)Nc2cccc([N+](=O)[O-])c2)cc1	0.4	0.7	16%	nt	2%	-7
Cc1c(Cl)cccc1NC(=O)CSc1ncccc1C(=O)Oc1ccccc1Cl	nt	3.6	nt	0.9%	nt	32
CCCC(=NCC(=O)O)C1=C(O)C(C(=O)OC)C(C)(C)CC1=O (configuration not stated)	1.4	-0.5	12%	-0.2%	-2%	2
CCn1c(=O)c2sccc2n2c(CCC(=O)NCc3ccc(Cl)cc3)nnc12	nt	1.9	nt	-0.8%	nt	-17

Carrying on:
SMILES	Menin-MLL FL inh	TRPML1 agonist	gsp agonist	ClpP mod	gsp antag	TRPML1 inh
O=S1(=O)NC(=NCc2ccco2)c2ccccc21	2.6	0.9	29%	-0.7%	-4%	-3
Cc1ccc2c(c1)-c1ccccc1S(=O)(=O)N2	4.0	0.1	5%	28µM*	-6%	10
Cc1ccccc1-n1c(Cn2c(=O)sc3ccccc32)nnc1SCC(=O)NCC1CCCO1 (configuration not stated)	-0.2	0.6	-31%[inhibitor]	1.6%	6%	29
Cc1nc2cc(NC(=O)N3CC4(C)CC3CC(C)(C)C4)ccc2n1C (configuration not stated)	2.6	0.3	-5%	-0.7%	7%	-17
CC(=O)Nc1ccc(NC(=O)C(C)OC(=O)/C=C/c2cccs2)cc1 (configuration not stated)	2.6	0.0	6%[15.4 µM]	1.5%	-4%	25
Cc1noc(NS(=O)(=O)c2ccc(N/C=C/C(=O)c3cccnc3)cc2)c1C	2.2	0.4	?	-3.2%	33%[activator]	1
CCOC(=O)C1CCN(c2cc(=O)n(-c3ccccc3Cl)c(=O)[nH]2)CC1	0.8	-0.3	-18%	-1.0%	-9%	9
COC(=O)c1ccccc1N(C)S(C)(=O)=O	0.5	-0.1	-41%[inhibitor]	-0.2%	-9%	27

Structures listed so far containing two or more sulfur atoms (4):
SMILES	Menin-MLL FL inh	TRPML1 agonist	gsp agonist	ClpP mod	gsp antag	TRPML1 inh
CSc1ccc(CCNC(=O)CN2C(=O)COc3ccc(S(=O)(=O)N4CCCCCC4)cc32)cc1	nt	1.5	nt	1.3%	nt	9
O=C(/C=C/c1cccs1)Nc1sc2c(c1C(=O)O)CCCC2	-0.1	1.4	-2%	0.2%	-31%	15
CCC1CCc2sc(C(=O)NNC(=S)NCC3CCCO3)cc2C1 (configuration not stated)	nt	0.9	-2%	4.2%	1%	39
Cc1ccccc1-n1c(Cn2c(=O)sc3ccccc32)nnc1SCC(=O)NCC1CCCO1 (configuration not stated)	-0.2	0.6	-31%[inhibitor]	1.6%	6%	29
